# D2 potentiator = potentiates the human D2 dopamine receptor allosterically. potentiation, % (no concentration beside the values). DiscoveRx D2 beta-arrestin cells, luminescence, 90 min; 100% = 57 uM dopamine signal. P14416. AID 624464. hit rate 0.23% among 360,000; active = potentiation of 50% or more; inconclusive = 30% to 50%; inactive = 30% or less;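 note: compound concentration not given in the record; tested on top of an EC20 dose of dopamine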
# Target sequence (P14416 whole entry, looked up): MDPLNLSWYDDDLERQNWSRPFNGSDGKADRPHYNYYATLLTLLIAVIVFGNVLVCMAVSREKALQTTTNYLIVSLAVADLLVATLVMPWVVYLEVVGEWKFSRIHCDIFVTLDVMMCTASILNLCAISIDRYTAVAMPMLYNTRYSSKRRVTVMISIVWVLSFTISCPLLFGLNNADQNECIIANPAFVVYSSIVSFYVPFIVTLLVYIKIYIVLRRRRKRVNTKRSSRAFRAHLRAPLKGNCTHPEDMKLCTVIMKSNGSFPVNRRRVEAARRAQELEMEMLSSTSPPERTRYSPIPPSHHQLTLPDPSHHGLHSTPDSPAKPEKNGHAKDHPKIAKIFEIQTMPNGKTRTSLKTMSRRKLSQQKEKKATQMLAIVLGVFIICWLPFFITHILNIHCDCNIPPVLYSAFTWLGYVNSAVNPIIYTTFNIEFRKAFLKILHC
#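 D2 cells co-treated with compound plus 50 nM dopamine (EC20) for 90 min at 37 deg C to detect potentiation. Beta-arrestin recruitment was read as enzyme-fragment luminescence after 1 h at ambient temperature. Full response was set by 57 uM dopamine.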
# PINK1 expr mod = PINK1 expression modulation. AID 624263. Potency, µM (doses to about 76.6 µM), inactives show at the top dose activation (PINK1 increase), most hits filed as activators. hit rate 0.2% among 410,000. PINK1 immunofluorescence, high-content cytometry, 24 h; active = well fitted activation curve with a large enough effect; inconclusive = small, poorly fitted or top-dose-only effect; inactive = flat fitted curve, though single readings scatter; cell line not stated here;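 note: potency is the fitted concentration of half-maximal effect; % of control where 0% means no effect; nearly all actives have a fitted effect of over 65% in size; a mitochondrial uncoupler was the plate control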
#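 Decision-based qHTS: stable cells, 24 h exposure to five compound concentrations, CCCP as control. Fixed cells stained for PINK1 plus nuclear, mitochondrial and cell markers, cytometer read.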
# CtBP-E1A inh = CtBP/E1A binding inhibition | AID 651724 | AlphaScreen GST-E1A/His-CtBP binding, 1536-well; stronger effect = lower value; control for the full effect not named in the record | hit rate 0.49% among 340,000 | activity change, % (test concentration not listed); in the data active means activity change below about -65%; inconclusive means about -30% to -65%; inactive means above about -30%; note: % is set by controls: 0 for no effect and ±100 for the full control effect; compound concentration not given in the record
#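 GST-E1A and His-tagged CtBP (125 nM each as 5X stock) were preincubated with pin-transferred compound for 2 h at 37 °C in the dark, then glutathione donor and nickel acceptor beads were added for 1 h before AlphaScreen reading.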
# TRPV1 PAM = human TRPV1 potentiation; Q8NER1; TRPV1-expressing cells, Fluo-8 calcium influx, capsaicin EC20 potentiation; host cell line not named in the record; control for the full effect not named in the record; potentiation, % at 8.33 µM; hit rate 0.02% among 320,000; AID 540277; active means potentiation above 80%; inconclusive means 30% to 80%; inactive means below 30%; note: 0% is about no effect
#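 Fluo-8 calcium influx in TRPV1-expressing cells, kinetic read (ex 480/em 520 nm). Compound added and read 3 min for agonist activity, followed by capsaicin at EC20 final and 2 min further read for enhancement.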
# Sfp inh = blocks B. subtilis Sfp PPTase activity; Q9F4F7; Biochemical Sfp PPTase activity, qHTS; Potency, µM, inactives show max response, negative = inhibition, most hits filed as inhibitors; hit rate 3.5% among 310,000; active = well fitted inhibition curve with a large enough effect; inconclusive = small, poorly fitted or top-dose-only effect, or another doubt; inactive = no such curve, though single readings can be large or run the other way;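 note: the enzyme is Sfp with the accession as filed and its product quenches rhodamine fluorescence; potency is the fitted concentration of half-maximal effect; 0% = enzyme reaction without inhibitor and -100% = no enzyme wells; top concentration of the series not given in the record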
#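 Fluorescence-quenching assay with 15 nM Sfp, 5 uM rhodamine-CoA and 12.5 uM BHQ-2-labelled ybbR peptide in pH 7.6 Hepes/MgCl2 buffer. Enzyme was pre-incubated with compound for 15 min at room temperature. Rate was taken from the 30-min fluorescence change (525/598 nm).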
# D2 agonist = activates the human D2 dopamine receptor; P14416; DiscoveRx PathHunter D2 beta-arrestin, luminescence, 90 min; 100% = 57 uM dopamine signal; activation, % (concentration not given with the values); hit rate 0.084% among 360,000; in the data active = activation above about 40%; inconclusive = about 15% to 40%; inactive = below about 15%; note: compound concentration not given in the record; the text of the record calls up to 30% inactive
#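 Agonist mode: compounds alone added to overnight-plated D2 PathHunter cells for 90 min at 37 C, with 57 uM final dopamine (EC100) defining full response. Beta-arrestin recruitment detected by chemiluminescent reagent, read after 1 h at ambient temperature.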
# Six1-Eya2 blk = Six1/Eya2 interaction inhibition; Q15475+O00167; AlphaScreen GST-Six1/His-Eya2 binding, biochemical; stronger effect = lower value; control for the full effect not named in the record; activity change, % (test concentration not listed); AID 651725; hit rate 0.56% among 360,000; in the data active = activity change below about -65%; inconclusive = about -30% to -65%; inactive = above about -30%; note: % is set by controls: 0 for no effect and ±100 for the full control effect; compound concentration not given in the record
#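 Compounds are tested against tagged Six1 and Eya2 proteins bridged by glutathione donor and nickel acceptor beads; after a one-hour incubation at 37 °C without light, AlphaScreen emission is recorded.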
# Starred values were filed as active, the others as inactive; ? = inconclusive; · = not tested or not shown; & = joins results of further samples; [ ] = dose if it differs, or a comment.
SMILES	D2 potentiator	PINK1 expr mod	CtBP-E1A inh	TRPV1 PAM	Sfp inh	D2 agonist	Six1-Eya2 blk
NC(=O)c1ccc(NC(=O)COc2cccc3c2CCNC3=O)cc1	13	2.8%	-19	11	·	-5.0	-2
COc1cc(SC)ccc1C(=O)Nc1cccc(S(=O)(=O)NC2=NCCCCC2)c1	-8	-1.5%	-24	-18	·	0.4	?
Nc1c(C(=O)NCc2ccccc2)nnn1Cc1cccc(Cl)c1	-1	11%	0	-4	-9%	4.9	0
Cc1ccc2nc(N(CCCN(C)C)C(=O)c3ccc(S(=O)(=O)N4CCOCC4)cc3)sc2c1	-19	-1.6%	-12	4	11%	1.6	-5
O=[N+]([O-])c1ccc(O)c(Nc2ncnc3ccccc23)c1	-17	-0.2%	·	3	-30%	2.6	5
N#C/C(=C\C=C\c1ccccc1[N+](=O)[O-])C(=O)NCc1ccccc1	4	0.2%	-14	2	-9%	0.6	-2
COc1ccc(OCC(O)Cn2c(N3CCCCC3)nc3c2c(=O)n(C)c(=O)n3C)cc1 (stereo not given)	4	4.1%	-22	0	6%	0.4	-9
NS(=O)(=O)c1ccc(CCNC(=O)CSCC(=O)Nc2ccc(Cl)cc2)cc1	-1	0.6%	-3	6	·	-2.2	3
COCCCNC(=O)CN1CCN(Cc2ccc(Cl)cc2)C1=O	-4	2.8%	8	?	4%	-2.4	3
C[C@H](CO)N1C[C@H](C)[C@H](CN(C)Cc2ccc(Oc3ccccc3)cc2)Oc2ccc(NC(=O)Nc3cccc4ccccc34)cc2CC1=O	-11	3.2%	-10	·	·	-6.4	-13
CC(C)CC(NC(=O)OC(C)(C)C)C(=O)NC(C(=O)NC(C)C(N)=O)C(C)C (stereo not given)	3	4.9%[38.3 µM]	2	-3	17%	-2.4	5
CC(C)Cn1c(N)c(C(=O)COC(=O)Cc2cccs2)c(=O)n(C)c1=O	-19	0.2%	5	-5	5%	-1.9	-5
COc1cccc(NC(=O)C/C(C)=N/NC(=O)C2CCCCC2)c1	4	1.6%	2	11	9%	-0.4	-5
CC1CCCCN1C(=O)/C(=C\c1ccccc1)c1ccccc1 (stereo not given)	-3	6.2%[38.3 µM]	8	-13	9%	-2.6	7
Cn1c(SCc2nnc3n2CCCCC3)nc2ccccc21	-5	1.3%[38.3 µM]	13	-11	-14%	1.3	-4
O=c1nc(-c2ccccc2)nc(-c2ccccc2)[nH]1	-4	-2.2%	8	11	12%	-6.0	5
Cc1ccc(Nc2nc(C(=O)NCc3ccco3)cs2)cc1	-13	-1.0%	-7	2	-20%	-0.7	-16
O=C(CCSCc1cccc(F)c1)NCCc1ccccc1	-9	3.6%&-0.1%	-8	-4	-9%	4.0	-14
COCCNC(=O)C1CCCN(C(=O)C2(c3ccc(Cl)cc3)CCCC2)CC1 (stereo not given)	-9	0.9%	3	·	·	-4.5	4
CC(C)(C)C(=O)Nc1cccc2[nH]ncc12	-3	-0.7%	-10	6	18%	-1.8	-12
CCCCC1CCC(c2nc(-c3cccnc3)no2)CC1 (stereo not given)	-8	14%	9	2	-16%	0.0	15
CCOc1ccccc1CN1CCN(C2CCC2)CC1CCO (stereo not given)	-17	0.7%	0	-3	18%	2.2	0
C=C1CSc2nc(=O)c3c4c(sc3n21)CCC4	-14	1.1%	?	14	-7%	-3.7	?
COc1ccc(Nc2cc(C)nc3c(C)cccc23)cc1OC	-11	-0.7%	-14	13	22%	-7.2	5
COc1ccc(/C=N/NC(=O)CCc2nc3ccccc3[nH]2)cc1	-12	3.4%	1	-5	3%	-3.4	2

# (continued)
SMILES	D2 potentiator	PINK1 expr mod	CtBP-E1A inh	TRPV1 PAM	Sfp inh	D2 agonist	Six1-Eya2 blk
COc1ccc2nc(NC(=O)c3cccnc3SC)sc2c1	-6	-1.0%	-10	1	2%	-2.1	-11
CCN(CC)Cc1c(O)ccc2c(C)c(CC(=O)OC)c(=O)oc12	-2	3.1%[38.3 µM]	6	4	11%	0.6	4
COc1ccc(C(=O)NCC(=O)NCCc2c[nH]c3ccccc23)cc1OC	-4	0.5%	1	?	1%	-0.9	-11
COc1ccc(Cl)cc1S(=O)(=O)N1CCN(Cc2ccc3c(c2)OCO3)CC1	-6	-2.5%[38.3 µM]	-15	5	5%	-0.8	-10
CC1(C(=O)Nc2cnc3ccccc3c2)CCN1Cc1ccc(-c2ccccc2)o1 (stereo not given)	-3	0.3%	-18	·	·	6.9	-6
CCOc1ccc(-c2nc(C#N)c(N3CCOCC3)o2)cc1	-3	-0.2%	0	·	8%	-3.9	-8
O=S(=O)(NC1CCCC1)c1ccccc1Cl	-7	-1.4%	-2	7	-7%	-2.8	7
Cc1c(N(C)S(=O)(=O)c2cc(C(=O)NCC3CCCO3)ccc2Cl)c(=O)n(-c2ccccc2)n1C (stereo not given)	8	-0.5%	-10	-3	·	-1.1	4
CC1(C)Cc2ccccc2C(NNC(=O)c2ccncc2)=N1	-15	-1.4%	5	-3	0%	-0.5	0
COCC(=O)Nc1cc(C(=O)Nc2cccc(C)c2C)ccc1Cl	1	·	6	-3	15%	2.3	1
CCN(CC)CCNC(=O)c1ccccn1	-26	-0.3%	1	-6	?	0.8	18
CCCCn1c(NCc2ccccc2NS(=O)(=O)c2ccc(C)cc2)nc2ccccc21	-17	0.0%	-8	4	27%	-1.1	0
O=C(NCc1ccccc1Cl)c1ccc2nc([C@H]3C[C@H](O)[C@@H](CO)O3)[nH]c2c1	-6	-0.4%	-19	·	·	-3.5	8
COc1cc(NS(=O)(=O)c2ccc(NC(=O)CCC(=O)O)cc2)nc(OC)n1	-2	1.2%	-9	10	?	-5.3	-7
COc1ccc(C(=O)Nc2cc(OC)c(NC(=O)c3ccco3)cc2OC)cc1	22	-1.1%[38.3 µM]	4	20	?	9.4	-14
Cc1ccc(NC(=O)Cc2nc(COC(=O)c3c(F)cccc3Cl)cs2)cc1	-4	0.5%	7	·	·	-2.4	1
CCNC(=S)N(Cc1ccc2c(c1)OCO2)C1CC(=O)N(c2ccc(F)cc2)C1=O (stereo not given)	-3	?	-2	7	10%	5.4	-7
O=C(CCN1C(=O)c2ccccc2S1(=O)=O)Nc1ccc(F)c([N+](=O)[O-])c1	2	3.0%	9	-5	·	-1.9	7
Cc1ccnn1-c1ccc(C(=O)OCC(=O)Nc2ccc(F)cc2)cc1	-4	2.3%	0	-1	·	-7.3	33
CC(=O)c1ccc(NC(=O)CCNS(=O)(=O)c2cccc3nonc23)cc1	-19	2.5%	4	-3	10%	-1.1	-2
COc1ccc(CN2CCCC(N3CCN(c4ccc(OC)cc4)CC3)C2)cc1 (stereo not given)	-36	-2.1%	·	18	2%	1.8	-1
Cc1nc2c(c(C)nn2-c2ccccc2)c(C)c1C	-4	7.2%	19	·	·	-6.0	8
CC(O)CNc1nc2ccccc2n1CC(=O)NC12CC3CC(CC(C3)C1)C2 (stereo not given)	-15	3.3%	-2	2	4%	-0.9	0
CCn1c(-c2ccc(Cl)cc2)n[nH]c1=S	-2	-1.4%[38.3 µM]	9	0	2%	-0.9	1
COc1ccc(CNS(=O)(=O)CCNC(=O)c2cccc(OC)c2)cc1	-15	-1.2%	-11	4	·	-7.6	6

# Retrieved by structure from the entries so far:
SMILES	D2 potentiator	PINK1 expr mod	CtBP-E1A inh	TRPV1 PAM	Sfp inh	D2 agonist	Six1-Eya2 blk
Cc1ccc(NC(=O)Cc2nc(COC(=O)c3c(F)cccc3Cl)cs2)cc1	-4	0.5%	7	·	·	-2.4	1
COc1ccc2nc(NC(=O)c3cccnc3SC)sc2c1	-6	-1.0%	-10	1	2%	-2.1	-11

# Compound profiles, from the list above. Order of values: D2 potentiator | PINK1 expr mod | CtBP-E1A inh | TRPV1 PAM | Sfp inh | D2 agonist | Six1-Eya2 blk
# C[C@H](CO)N1C[C@H](C)[C@H](CN(C)Cc2ccc(Oc3ccccc3)cc2)Oc2ccc(NC(=O)Nc3cccc4ccccc34)cc2CC1=O is listed as -11 | 3.2% | -10 | · | · | -6.4 | -13
# COc1cc(SC)ccc1C(=O)Nc1cccc(S(=O)(=O)NC2=NCCCCC2)c1 is listed as -8 | -1.5% | -24 | -18 | · | 0.4 | ?
# C=C1CSc2nc(=O)c3c4c(sc3n21)CCC4 is listed as -14 | 1.1% | ? | 14 | -7% | -3.7 | ?
# COc1ccc(CN2CCCC(N3CCN(c4ccc(OC)cc4)CC3)C2)cc1 (stereo not given) is listed as -36 | -2.1% | · | 18 | 2% | 1.8 | -1

# The listing continues.
SMILES	D2 potentiator	PINK1 expr mod	CtBP-E1A inh	TRPV1 PAM	Sfp inh	D2 agonist	Six1-Eya2 blk
COC(=O)CCC(=O)Nc1ccc(S(=O)(=O)Nc2nc(C)cc(C)n2)cc1	-3	-0.7%	7	-9	24%	-3.8	17
COC(=O)c1ccc(N(CC(=O)NC2CCCC2)C(=O)c2ccc(C)s2)cc1	-7	1.0%	0	-3	5%	8.9	11
Cc1ccccc1OCCC(=O)OCC(=O)NNC(=O)c1cccs1	-4	-1.1%	-7	8	·	5.6	4
CCN(CC)C(=O)c1sc(N)c(C#N)c1C	-2	1.0%	35	6	-17%	-3.9	19
N#Cc1cc(S(=O)(=O)N2CCOCC2)ccc1N1CCOCC1	-7	-0.5%	-9	18	-5%	-2.2	-3
C=CCOC(=O)C1=C(C)NC(=O)NC1/C=C/c1ccccc1 (stereo not given)	-9	-1.0%	-2	-4	6%	-0.9	-2
O=C(NCc1ccccc1)C(=O)NCC1OCCN1S(=O)(=O)c1ccc2c(c1)OCCO2 (stereo not given)	-1	1.6%	-4	1	5%	-4.9	0
COc1ccc(S(=O)(=O)N(C)C[C@H]2Oc3ccc(NS(=O)(=O)c4ccc(F)cc4)cc3C(=O)N([C@H](C)CO)C[C@@H]2C)cc1	-2	-0.1%	0	·	·	-5.4	-5
CCOc1ccc(S(=O)(=O)N2CCOCC2)cc1[N+](=O)[O-]	-1	2.8%	·	2	16%	-4.7	0
Cc1c(NC(=O)C(CC(=O)O)NCc2ccco2)c(=O)n(-c2ccccc2)n1C (stereo not given)	4	0.4%	3	28	-11%	-2.6	23
CS(=O)(=O)N1CCCC(C(=O)Nc2ccccc2F)C1 (stereo not given)	-3	-0.5%	0	5	18%	1.5	0

# Hits appear at their usual frequency. About 3.7% of those tested had a hit in this group.
